# Rango release inh: qHTS Assay for Inhibitors of RanGTP induced Rango (Ran-regulated importin-beta cargo) - Importin beta complex dissociation; Snurportin-1 (Homo sapiens) + GTP-binding nuclear protein Ran (Homo sapiens) + Importin …; Biochemical FRET Rango-importin beta, RanGTP-induced dissociation; Potency, µM (series often up to 46.1 µM), for the others: top-dose activity change, negative = inhibition; actives 0.071% (n = 340,000); AID 540253, 2011; active means falling FRET ratio curve, often poorly fitted, with flat reads before Ran was added; inconclusive means other falling curves, or compound fluorescence or quenching; inactive means flat or rising ratio curve;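 further: potency means the concentration at half of the fitted maximal effect; % of control where 0% means no effect; nearly all actives have a fitted effect of over 45% in size; -100% = wells without RanGTP and RCC1; the record marks most hits as doubtful in a second field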
#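 Rango (0.1 uM)–importin beta (0.25 uM) complex; RanGTP-RCC1 trigger; 45 min RT; CFP/YFP FRET read.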
# miR-21 reporter: qHTS Assay for Modulators of miRNAs and/orActivators of miR-21 | HeLa miR-21 FLuc reporter, luciferase, 48 h | Potency, µM (series often up to 38.3 µM), without a hit: at the top dose reporter change, positive = more light | 340,000 tested, under 10 active | AID 2288, 2010; active = well fitted rising curve with a large enough effect; inconclusive = small, poorly fitted or top-dose-only effect; inactive = no such curve, though single readings can be large or run the other way;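 further: % of control where 0% means no effect; miR-21 action dims this reporter so a rising signal means less miR-21 action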
#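 Luminescence from a firefly luciferase reporter carrying a miR-21 binding site downstream, stably expressed under a CMV promoter in HeLa cells that make miR-21 endogenously, reports miRNA modulation after 48 h compound exposure up to approximately 40uM final.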
# GLA inh pH 4.5: qHTS Assay for Inhibitors of Human alpha-Galactosidase at pH 4.5; Alpha-galactosidase A (Homo sapiens), P06280; purified enzyme, 4-MU-alpha-Gal fluorescence, pH 4.5; activity change, negative = inhibition, % at 105 µM; 230,000 tested, under 10 active; AID 1467, 2008; inconclusive = small, poorly fitted or top-dose-only inhibition, or a rising curve; inactive = flat fitted curve, though single readings scatter; no compound was filed as active;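 further: 0% = full activity with enzyme and -100% = basal without enzyme; dose as in the result columns while the protocol names 77 µM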
# Target sequence (P06280 whole entry, looked up): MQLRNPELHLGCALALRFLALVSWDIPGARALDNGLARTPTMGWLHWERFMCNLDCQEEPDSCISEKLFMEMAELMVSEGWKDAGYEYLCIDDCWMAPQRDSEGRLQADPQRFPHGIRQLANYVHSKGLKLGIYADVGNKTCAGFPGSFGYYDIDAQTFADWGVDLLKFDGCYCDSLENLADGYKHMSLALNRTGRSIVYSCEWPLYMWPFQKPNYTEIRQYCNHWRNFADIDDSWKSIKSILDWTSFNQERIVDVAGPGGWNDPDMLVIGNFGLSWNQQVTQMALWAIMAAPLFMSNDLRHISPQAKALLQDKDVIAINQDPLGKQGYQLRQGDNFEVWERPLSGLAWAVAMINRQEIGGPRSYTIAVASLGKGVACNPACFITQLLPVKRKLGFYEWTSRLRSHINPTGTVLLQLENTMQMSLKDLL
# Rango complex inh: qHTS Assay for Inhibitors of Rango (Ran-regulated importin-beta cargo) - Importin beta complex formation. actives 0.031% (n = 340,000). Rango CFP/YFP FRET sensor + importin beta, 45 min. Potency, µM (doses to about 92.2 µM), inactives show at the top dose inhibition of complex formation. Importin subunit beta-1 (Homo sapiens), Q14974. AID 540263, 2011; active = rising FRET ratio curve, often small or poorly fitted; inconclusive = mostly compound fluorescence or quenching in the first reads; inactive = flat curves in all reads;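 further: potency means the concentration at half of the fitted maximal effect; 0% = DMSO wells and 100% = buffer wells lacking importin beta; nearly all actives have a fitted effect of over 15% in size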
#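 Inhibition scored from the CFP 486 nm/YFP 530 nm FRET ratio 45 min after adding 0.125 microM importin beta to 50 nM Rango biosensor preincubated 5 min with compound (room temperature, PBS with DTT, Tween-20, BSA). No-importin wells as positive control.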
# The depositor's hits bear a star; ? = inconclusive; nt = no result given. The list is partial, so the mix of outcomes need not match the whole.
SMILES,Rango release inh,miR-21 reporter,GLA inh pH 4.5,Rango complex inh
N#CC(c1ccccc1O)N1N=C(c2ccccc2)CC1c1ccccc1 (stereo unspecified),2%,-50%,-4,-4.1%
COc1ccc(-c2cc(C(=O)Nc3ccc(C)c(N)c3)c3ccccc3n2)cc1,7%,1%,nt,?
Cc1ccc(C)c(Nc2nc3ccccc3[nH]2)c1,-8%,nt,nt,-0.8%
O=S(=O)(Cc1ccccc1)N(O)c1ccccc1,-11%,0%,nt,-0.6%
CCOC(=O)c1ccc(CNC(=O)c2n[nH]c(=O)c3ccccc23)o1,2%,-16%,0,-4.0%
Cc1ccc(S(=O)(=O)Cc2ccc(C(=O)N3CCCC3)o2)cc1,1%,-1%,-1,-2.2%
O=C(CO/N=C/c1ccccc1O)NNC(=O)c1ccccc1Cl,17%,-3%,-2,0.4%
Cc1noc(C)c1CSc1nnc2cc(C)c3ccccc3n12,0%,-9%,-5,-3.5%
Cc1ccc(NC(=O)C(C)OC(=O)c2ccc(NC(=O)CC#N)cc2)cc1S(=O)(=O)N1CCOCC1 (stereo unspecified),-15%,nt,nt,?
CC(C)OC(=O)Nc1ccc(Oc2c(F)c(F)c(F)c(F)c2F)cc1,-7%,-10%,10,2.1%
Cc1ccccc1C(=O)NC1CCN(CC(=O)NCc2ccccc2)CC1,26%,-4%,nt,5.9%
COc1cccc(C(=O)NC2=NCCS2)c1,1%,-14%,2,4.2%
NC1=NC(=O)C(Cc2cccc(Cl)c2Cl)S1 (stereo unspecified),1%,-24%,1,-0.5%
Cc1ccc(NC(=O)Cc2nnc(SCC(=O)c3ccc(Br)cc3)n2C)cc1,-6%,6%,0,-2.4%
O=C(Nc1c(Cl)cccc1Cl)c1cc(-c2ccco2)on1,?,-31%,nt,0.4%
Cn1cc(Br)c(C(=O)NC(=S)Nc2ccc(S(N)(=O)=O)cc2)n1,0%,0%,1,-1.2%
C[C@@]12C(=O)N(CC3CCCO3)CC(=O)N1[C@H]1c3cc(Cl)ccc3OC[C@@H]1[C@@H]2c1ccccc1 (stereo partly specified),8%,nt,nt,-0.4%
CC(NC(=O)CCCCCCN1C(=O)c2ccccc2C1=O)c1ccc2c(c1)CCCC2 (stereo unspecified),3%,6%,-7,8.6%
CSc1ccc(NC(=O)Nc2cccn(Cc3ccccc3F)c2=O)cc1,-4%,-5%,1,-2.5%
O=c1[nH]c(C2CCN(S(=O)(=O)c3ccc(C(F)(F)F)cc3)CC2)nc2c1nnn2Cc1ccccc1,14%,-2%,nt,-5.7%
CCCc1nc(N2CCCC2)c(C#N)c2c1CCCC2,-1%,-9%,5,-0.4%
CCOC(=O)C1CCCN(C(=O)c2c(-c3ccccc3Cl)noc2C)C1 (stereo unspecified),0%,-5%,2,0.2%
Cn1c(N)c(C(=O)CSc2n[nH]c(N)n2)c(=O)n(C)c1=O,-14%,nt,nt,0.5%
CN(C)C(CNC(=O)c1cccs1)c1ccco1 (stereo unspecified),-8%,nt,nt,2.6%
Cc1ccc(S(=O)(=O)Nc2nccs2)cc1[N+](=O)[O-],10%,9%,10,2.0%
Fc1cccc(-c2cc3nc4c(c(NCc5ccco5)n3n2)CCCC4)c1,18%,-49%,4,-1.8%
CCNC(=S)N(Cc1ccco1)Cc1cc2cc(OCC)ccc2[nH]c1=O,-8%,-6%,6,2.5%
COc1ccccc1C(=O)Nc1ccc(C(=O)N2CCCCC2)cc1,1%,-18%,nt,1.3%
Cn1c(C(=O)NCC2CCCO2)cc2c(=O)n(C)c3ccccc3c21 (stereo unspecified),-6%,-2%,17,0.5%
Nc1nc(C23CC4CC(CC(Cl)(C4)C2)C3)cs1,-9%,-1%,-11,2.0%
O=c1oc2ccccc2c(O)c1CN1CCCCC1,11%,-9%,-8,-2.2%
C/C=C(\C)C(=O)OC1[C@H](OC(C)=O)C2(CO)C(CC1(C)C)C1=CCC3C4(C)CCC(O[C@@H]5O[C@H](C(=O)O)[C@@H](O[C@@H]6O[C@H](CO)[C@@H](O)[C@H](O)[C@H]6O)[C@H](O)[C@H]5O[C@H]5O[C@H](CO)[C@@H](O)[C@H](O)[C@H]5O)[C@](C)(CO)C4CCC3(C)[C@]1(C)C[C@H]2O (stereo partly specified),4%,nt,nt,0.9%
CC(NS(=O)(=O)c1ccc(NC(=O)N2CCCCC2)cc1)c1ccccc1 (stereo unspecified),-10%,1%,nt,-0.3%
Cc1ccc(NC(=O)C2CCN(S(=O)(=O)c3ccc4c(c3)oc(=O)n4C)CC2)cc1,6%,0%,nt,-6.2%
CC1CCN(S(=O)(=O)c2ccc3c(c2)c(=O)c(C(=O)NC2CCCC2)cn3C)CC1,0%,-3%,-13,2.2%
CC(C)(C)c1cc2ncnc(N3CCCCC3)c2s1,-5%,-10%,nt,?
COC(=O)CN1C(=S)N(Cc2ccccc2)C(=O)C1CC(=O)Nc1ccc(Br)cc1 (stereo unspecified),1%,13%,-5,-0.3%
O=C(N/N=C\c1cc(Br)ccc1O)c1ccc(S(=O)(=O)N2CCCCC2)cc1,-7%,1%,-4,-0.3%
Cc1nc2ccccc2c(=O)n1NC(=O)Cc1ccc([N+](=O)[O-])cc1,8%,-3%,7,-2.6%
O=C(CSc1nc(=O)n2cc(Cl)ccc2n1)Nc1cccc2ccccc12,-9%,nt,nt,-0.3%
C=C(C)c1cccc(C(C)(C)NC(=O)NC2CCN(Cc3ccccc3)CC2)c1,-1%,4%,nt,0.3%
COc1ccc(N2C(=O)c3ccccc3NC2c2cccnc2)cc1 (stereo unspecified),4%,-26%,-11,-0.3%
CC(C)(C)C1CCC2(CC1)C(C#N)=C(SCC(=O)Nc1ccccc1)NC(=O)C2C#N (stereo unspecified),2%,28%,-18,-2.2%
CN(CC(=O)Nc1ccc(F)cc1)C(=O)CSc1nncs1,6%,-5%,nt,-0.7%
N/C(=N\OC(=O)c1ccc(OCC(F)(F)F)nc1)c1ccc(Cl)cc1,-5%,-5%,4,7.5%
O=C(COC(=O)CSc1ccc(F)cc1)NNC(=O)c1ccc([N+](=O)[O-])cc1,11%,nt,nt,0.8%
CCOc1ccc(NC(=O)NC(=O)N(C)S(=O)(=O)c2ccc(C)cc2)cc1,-14%,-5%,4,0.7%
Cc1ccc2[nH]cc(S(=O)(=O)c3ccc(F)cc3)c(=O)c2c1,-8%,12%,nt,0.9%
Cc1cccc(N(C(=O)Cn2nnc3ccccc32)C(C(=O)NC(C)(C)C)c2ccsc2)c1C (stereo unspecified),20%,-2%,-11,-4.1%
COC(=O)c1ccc(C(=O)OC)c(NC(=O)C(C)(C)C)c1,43%,-2%,6,-3.1%
Cc1ccc2c(c1)cc(CN(Cc1ccc3c(c1)OCO3)C(=O)c1cnccn1)c1nnnn12,-10%,-10%,0,-0.7%
Cc1cc(NC(=O)/C=C/c2ccc(Br)cc2)no1,0%,-17%,11,-2.0%
Cc1ccc(NC(=O)CSc2nc(C)c(C)c(C)n2)c([N+](=O)[O-])c1,-8%,-7%,1,1.2%
COc1ccc(N2CCN(C(=O)c3cccc(N4C(=O)C5C6C=CC(C6)C5C4=O)c3)CC2)cc1 (stereo unspecified),-7%,0%,nt,-0.8%
CCOC(=O)C1CN(S(=O)(=O)c2ccc(C)cc2)c2ccccc2O1 (stereo unspecified),1%,0%,nt,1.5%
CCOC(=O)CCCCC(=O)c1[nH]c(=O)[nH]c1Cn1ccnc1,-2%,-16%,2,0.6%
O=C(CC1C(=O)NCCN1CC1CCCCC1)NCCc1ccc(F)cc1 (stereo unspecified),8%,-4%,5,5.3%
O=C(Cn1nc(Cc2cccnc2)c2ccccc2c1=O)NCC1CCCO1 (stereo unspecified),-18%,-5%,-21,-1.4%
COc1cccc(OCC(O)CN2CCN(CCN3C(=O)c4cccc5cccc(c45)C3=O)CC2)c1 (stereo unspecified),11%,21%,-6,5.7%
Cc1nc2ccccc2n1CCCOc1ccccc1,-8%,-28%,-4,1.6%
# Later entries
SMILES,Rango release inh,miR-21 reporter,GLA inh pH 4.5,Rango complex inh
CCOP(=O)(OCC)C(Nc1cccc(C(F)(F)F)c1)c1ccc(F)cc1 (stereo unspecified),-25%,1%,-6,-5.9%
CCn1c(SCC(=O)O)nnc1C1CCCCC1,7%,-3%,-1,1.6%
O=CNCC(=O)NC1CCCCCC1,13%,-2%,-3,-0.5%
Cc1ccc(C(=O)COC(=O)CCN2C(=O)C3C4CCC(C4)C3C2=O)cc1[N+](=O)[O-] (stereo unspecified),13%,-1%,nt,-0.8%
CC1=C(Sc2ccccn2)C(=O)NC(C)(C)C1,19%,-4%,-5,0.1%
Cc1c(C(=O)N2CCCCC2)c(S(=O)(=O)NCCc2ccccc2)c(C)n1C,-13%,-6%,nt,2.1%
Cc1cccc(NS(=O)(=O)c2ccc(C3CCCCC3)cc2)c1,25%,22%,-1,-0.5%
COc1ccc(C2=Nn3c(nnc3-c3cc(C)[nH]n3)SC2)cc1,1%,-19%,-2,-0.9%
CC1CCCCC1NC(=O)/C(C#N)=C/c1ccc(F)c(F)c1 (stereo unspecified),4%,-4%,2,-0.6%
COc1ccc(N(CC(=O)NC2CCCCCC2)S(=O)(=O)c2ccccc2)cc1Cl,12%,5%,nt,2.2%
S=c1sc2ccccc2n1CCc1ccncc1,15%,nt,nt,-4.8%
CCOC(=O)c1c(C)nsc1NC(=O)c1ccco1,10%,-4%,nt,0.3%

# Profiles from above.
# Record of CCOC(=O)c1c(C)nsc1NC(=O)c1ccco1 = Rango release inh = 10%; miR-21 reporter = -4%; GLA inh pH 4.5 = nt; Rango complex inh = 0.3%
# Record of COc1ccc(N(CC(=O)NC2CCCCCC2)S(=O)(=O)c2ccccc2)cc1Cl = Rango release inh = 12%; miR-21 reporter = 5%; GLA inh pH 4.5 = nt; Rango complex inh = 2.2%
# Record of COc1ccc(C2=Nn3c(nnc3-c3cc(C)[nH]n3)SC2)cc1 = Rango release inh = 1%; miR-21 reporter = -19%; GLA inh pH 4.5 = -2; Rango complex inh = -0.9%

# (cont.)
SMILES,Rango release inh,miR-21 reporter,GLA inh pH 4.5,Rango complex inh
Cc1c(CCO)c(=O)[nH]n1S(=O)(=O)c1ccc([N+](=O)[O-])cc1,3%,12%,nt,0.2%
O=C(O)C(C/C(=N/O)c1ccc(Br)cc1)P(=O)(c1ccccc1)c1ccccc1 (stereo unspecified),-1%,-2%,5,-1.6%
CC(=C/c1ccc(C(C)C)cc1)/C=N/NC(=O)Cn1nc(C)cc1C,-21%,-7%,-9,0.3%
CC12C=CC3(O1)C(C(=O)N(c1ccccc1)C3C(=O)NC1CCCC1)C2C(N)=O (stereo unspecified),-10%,-5%,-7,3.7%
COc1cccc2c1C1COC3C4CC(C(=O)O)C(C(C2)N13)N4C (stereo unspecified),-1%,nt,nt,-0.9%
O=C(N[C@@H]1CCC(=O)N(CC[C@H](Sc2ccccc2)c2ccccc2)CC1)OCc1ccccc1,5%,16%,nt,9.0%
COc1ccc(-c2nc3c(-c4ccc(F)cc4)cnn3cc2C)cc1F,-5%,-3%,3,?
CCN(CC)S(=O)(=O)c1ccc(Cl)c(C(=O)NC2CCCC2)c1,3%,-2%,6,0.4%
COc1ccc(NC(=O)CCN2CCN(Cc3ccccc3)CC2)c(OC)c1,-13%,-6%,nt,0.2%
O=C(CNC(=O)c1ccc(Br)o1)NCc1cccc(Cl)c1,-7%,2%,nt,-3.1%
O=C(C1CCN(Cc2ccc(OCc3ccccc3)cc2)CC1)N1CCCC1,-9%,-22%,3,-3.9%
COc1ccccc1NC(=O)Cn1cnc2c(cnn2-c2ccc(C)c(C)c2)c1=O,-13%,-1%,-8,-0.7%
COC(=O)c1ccc(N(C(=O)c2ccco2)C(C(=O)NC2CCCC2)c2ccco2)cc1 (stereo unspecified),-16%,-16%,-9,-4.5%
Fc1cccc(NC(=S)N2CCCCC2)c1,-8%,1%,10,-1.5%

# Screening data from PubChem.
